YopH inh = YopH tyrosine phosphatase inhibitors, primary screen, biochemical, fluorescence Ex485/Em525 | YopH tyrosine phosphatase [Yersinia enterocolitica] | inhibition, %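 (about 10 µM by stock and volumes)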 | hit rate 0.16% among 140,000 | AID 898, 2007;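 active means inhibition of 50% or more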;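 further: controls were vehicle for no effect and minimum signal wells for full effect; inactives centre near -20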
Mtb bLac sens = beta-lactam sensitization of Mtb H37Rv, H37Rv; M. tuberculosis H37Rv growth with meropenem, percent inhibition; hits of this screen are not shown here; inhibition, % at 25 µM; hit rate 0.27% among 330,000;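 active means about 74% or more and at least 40 points above the plate without the antibiotic, then above 30% in a dose series; inconclusive means first-round hits that could not be retested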;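 further: growth measured after seven days incubation then overnight dye step; 0% = bacteria only wells and 100% = bacteria with antibiotic; twin plates without the antibiotic show which effects depend on it; some results filed as inactive read as strong as hits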
Mtb growth = M. tuberculosis H37Rv growth inhibitors, H37Rv strain (AID 1626). inhibition, % at 10 µM; hits with a dose series show IC50 in µM. M. tuberculosis H37Rv growth inhibition; higher % means a stronger effect. hit rate 0.95% among 220,000;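 active means confirmed in a dose series; inconclusive means inhibition above 80% but not taken into the dose series; inactive means below 80% or under 30% at every dose of the series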;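 further: bacteria incubated seven days before Alamar blue readout; 0% = bacteria only wells and 100% = bacteria with antibiotic wells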
Arbovirus inh = antivirals against arbovirus infection, primary screen, cell-based, full library, 10K replicate subset; inhibition, % at 10 µM; arbovirus infection cell-based antiviral screen; hit rate 0.37% among 200,000;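 active means inhibition from about 30%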;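 further: bluetongue infection of BSR cells; cell survival read as ATP light after 72 h; 0% = infected wells without compound and 100% = uninfected wells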
RecA splice inh = Mtb RecA intein splicing inhibitors, primary screen, biochemical, fluorescence, HTS | Protein RecA (Mycobacterium tuberculosis (strain ATCC 25618 / H37Rv)), P9WHJ3 | cell-free RecA intein splicing | inhibition, %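 (about 9 µM by stock and volumes)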 | hit rate 0.75% among 290,000; in the data active means inhibition above about 30%; inconclusive means no clear call, values can overlap the other calls;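 further: 0% = vehicle wells and 100% = reference inhibitor control wells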
Target sequence (P9WHJ3 whole entry, looked up, canonical isoform): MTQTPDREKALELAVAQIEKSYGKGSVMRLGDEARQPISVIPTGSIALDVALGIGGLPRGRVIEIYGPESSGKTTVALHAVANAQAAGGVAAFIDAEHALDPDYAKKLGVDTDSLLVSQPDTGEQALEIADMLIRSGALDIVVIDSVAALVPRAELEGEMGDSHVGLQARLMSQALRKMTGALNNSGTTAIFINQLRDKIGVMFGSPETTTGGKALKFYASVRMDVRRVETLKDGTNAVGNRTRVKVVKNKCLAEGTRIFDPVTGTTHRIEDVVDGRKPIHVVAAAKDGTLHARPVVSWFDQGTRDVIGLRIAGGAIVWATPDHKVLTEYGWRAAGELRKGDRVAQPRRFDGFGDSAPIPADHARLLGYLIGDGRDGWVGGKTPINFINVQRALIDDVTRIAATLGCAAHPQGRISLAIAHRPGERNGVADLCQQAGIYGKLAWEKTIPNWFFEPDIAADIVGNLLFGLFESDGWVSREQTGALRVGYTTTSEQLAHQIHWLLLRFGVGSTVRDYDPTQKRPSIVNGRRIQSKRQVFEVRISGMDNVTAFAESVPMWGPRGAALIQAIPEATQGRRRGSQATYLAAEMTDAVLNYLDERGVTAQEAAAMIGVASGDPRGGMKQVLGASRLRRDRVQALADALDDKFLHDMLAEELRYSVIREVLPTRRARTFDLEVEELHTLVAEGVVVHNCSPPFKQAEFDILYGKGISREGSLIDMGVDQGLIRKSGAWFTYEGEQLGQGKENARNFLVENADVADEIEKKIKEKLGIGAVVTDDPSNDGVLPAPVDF
Arbovirus inh repeat = second read-out of Arbovirus inh, no call of its own (marks repeat the call); inhibition, %; measured here: 10K subset replicate screen; many hits read low in the repeat;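 first of two repeat runs on a subset; 0% = infected and 100% = uninfected wells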
* marks the source's active call; other numbers are inactive results. An excerpt; count on the stated rates, not on these rows.

How did CC(=O)c1cccc(NC(=O)c2cc(-c3ccc(C)cc3)on2)c1 do in these assays?
YopH inh: 39.4; Mtb bLac sens: 2.2; Mtb growth: 11.5%; Arbovirus inh: 6.4; RecA splice inh: -0.3

Results for Cc1ccccc1Cn1c(=O)n(CC2CCC(C(=O)NCCc3ccccc3)CC2)c(=O)c2ccccc21 (configuration not stated) ?
YopH inh: -22.3; Mtb bLac sens: 0.0; Mtb growth: 34.1%; Arbovirus inh: -19.7; RecA splice inh: 3.9

How did Cc1ccc(/C=C2/Sc3ccc(C(=O)N4CCN(C)CC4)cc3NC2=O)cc1 do in these assays?
Mtb bLac sens: 27.9; RecA splice inh: -0.1

Results for Cc1ccc2nc(-c3ccccc3O)c(Nc3ccc4c(c3)OCCO4)n2c1 ?
YopH inh: -19.8; Mtb bLac sens: 7.8; Mtb growth: 10.4%; Arbovirus inh: -1.4; RecA splice inh: -1.3

How did O=C(Nc1nc(-c2ccc(F)cc2)cs1)c1cnccn1 do in these assays?
YopH inh: 1.9; Mtb growth: >100µM*; Arbovirus inh: -9.7; RecA splice inh: 1.9

Results for O=S(=O)(NCC1CCCO1)c1ccc(NS(=O)(=O)c2ccc(F)cc2)cc1 (configuration not stated) ?
Mtb bLac sens: 2.2; RecA splice inh: 9.4

What do the screens show for `CCOc1ccc(-n2c(=O)cc(N3CCN(c4ccc(F)cc4)CC3)[nH]c2=O)cc1`?
YopH inh: -35.4; Mtb bLac sens: 1.4; Mtb growth: 5.7%; Arbovirus inh: 1.2; RecA splice inh: -0.3

Results for CCOC(=O)/C(C#N)=C(\N)C(C)C(=O)Nc1ccccn1 (configuration not stated) ?
YopH inh: -38.2; Mtb bLac sens: -13.9; Mtb growth: -2.3%; Arbovirus inh: -2.6; RecA splice inh: 0.3

What do the screens show for `c1coc(CNc2c3c(nc4ncnn24)CCC3)c1`?
YopH inh: -34.2; Mtb bLac sens: -6.3; Mtb growth: -0.1%; Arbovirus inh: 1.3; RecA splice inh: -0.3

What do the screens show for `CC1CCCCC1NC(=O)CN(C)S(=O)(=O)c1ccc2c(c1)c(=O)n(C)c(=O)n2C` (configuration not stated)?
Mtb bLac sens: 2.1; RecA splice inh: 0.4

Results for O=C(CCN1CCC(c2cccs2)=N1)c1cccs1 ?
Mtb bLac sens: 99.1; Mtb growth: -1.0%; RecA splice inh: -7.4

Results for COc1ccc(NS(=O)(=O)c2cc(NC(=O)c3cnccn3)ccc2OC)cc1Br ?
Mtb bLac sens: 3.0; Mtb growth: 0.2%; Arbovirus inh: -13.3; RecA splice inh: -0.7

Results for Cc1ccc(O)c(C(=O)c2cnc3onc(-c4ccc(F)cc4)c3c2)c1 ?
YopH inh: -10.3; Mtb bLac sens: 5.7; Mtb growth: 13.3%; Arbovirus inh: 4.4; RecA splice inh: 3.9

Results for O=C(c1ccc(S(=O)(=O)Cc2cc(F)ccc2F)c([N+](=O)[O-])c1)N1CCCC1 ?
Mtb bLac sens: -3.7; Mtb growth: -3.7%; Arbovirus inh: -21.0; RecA splice inh: 13.9

What do the screens show for `CC1CN(C(=O)c2ccc(COc3ccc4ccccc4c3)o2)CC(C)O1` (configuration not stated)?
Mtb bLac sens: 6.0; Mtb growth: 1.1%; Arbovirus inh: -1.3; RecA splice inh: -1.2

What do the screens show for `O=C(NC(NC1CCS(=O)(=O)C1)C(=O)c1cccs1)c1ccccc1` (configuration not stated)?
YopH inh: -18.0; Mtb bLac sens: 3.1; Mtb growth: -4.0%; Arbovirus inh: 8.4; RecA splice inh: 0.1

How did NS(=O)(=O)c1cccc(NC(=O)COC(=O)CN2C(=O)C3CC=CCC3C2=O)c1 (configuration not stated) do in these assays?
Mtb bLac sens: -8.7; Mtb growth: 5.8%; Arbovirus inh: 3.2; RecA splice inh: -0.8

What do the screens show for `CCCCN(C(=O)COc1ccc(C)cc1OC)c1c(N)n(CCC)c(=O)[nH]c1=O`?
Mtb bLac sens: -8.8; Mtb growth: 3.4%; RecA splice inh: -15.6

What do the screens show for `Nc1c(C(=O)NCCN2CCOCC2)c2nc3ccccc3nc2n1Cc1ccccc1`?
Mtb bLac sens: 77.9; Mtb growth: 13.8%; RecA splice inh: -139.8

What do the screens show for `Nc1nc(-c2ccccn2)nc(N)c1Cc1ccccc1F`?
Mtb bLac sens: 73.1; Mtb growth: inconclusive; Arbovirus inh: -23.2; RecA splice inh: -4.5

What do the screens show for `Cc1cnc(C(=O)NCCc2ccc(C(F)(F)F)cc2)cn1`?
Mtb bLac sens: -2.0; RecA splice inh: 1.9

What do the screens show for `COc1ccc(-n2c(SCC(N)=O)nc3sc4c(c3c2=O)CCC4)cc1`?
Mtb bLac sens: 6.3; Mtb growth: 18.5%; Arbovirus inh: -1.4; RecA splice inh: 0.5

What do the screens show for `Cc1cc(=O)oc2c(C)c(OC(C)C(=O)NCCN3CCOCC3)ccc12` (configuration not stated)?
Mtb bLac sens: 1.8; RecA splice inh: -1.5

How did Cc1cc(C(F)(F)Cl)n2ncc(-c3ccccn3)c2n1 do in these assays?
Mtb bLac sens: -4.3; RecA splice inh: 1.0

How did COCCn1cc(C(=O)c2cc(Br)ccc2O)cc(C#N)c1=O do in these assays?
Mtb bLac sens: 0.8; Mtb growth: 3.0%; Arbovirus inh: 3.5; RecA splice inh: 0.2

Results for COc1ccc(-n2c(O)cnc2Nc2nc(C)cc(C)n2)cc1OC ?
YopH inh: -29.4; Mtb bLac sens: 8.8; Mtb growth: -11.1%; Arbovirus inh: 3.6; RecA splice inh: -2.1

Results for COc1ccc(CC(=O)NNC(=O)CSc2nc(C)c(C)c(=O)[nH]2)cc1 ?
Mtb bLac sens: 0.2; Mtb growth: 0.3%; Arbovirus inh: -3.0; RecA splice inh: 5.0

Results for CCC(=O)NC(c1ccc(C)cc1)c1ccc2cccnc2c1O (configuration not stated) ?
Mtb bLac sens: 4.3; RecA splice inh: -4.6

Results for CCOC(=O)C1(CC2CCCCO2)CCN(S(=O)(=O)c2cccc(F)c2)CC1 (configuration not stated) ?
Mtb bLac sens: 4.5; Mtb growth: 5.2%; Arbovirus inh: -5.1; RecA splice inh: 7.0

Results for COc1cc(CNc2nnnn2C)cc(OC)c1OC ?
Mtb bLac sens: -4.7; RecA splice inh: 0.2

The last two records of the part before open the next one.
Results for CCOC(=O)C1(CC2CCCCO2)CCN(S(=O)(=O)c2cccc(F)c2)CC1 (configuration not stated) ?
Mtb bLac sens: 4.5; Mtb growth: 5.2%; Arbovirus inh: -5.1; RecA splice inh: 7.0

Results for COc1cc(CNc2nnnn2C)cc(OC)c1OC ?
Mtb bLac sens: -4.7; RecA splice inh: 0.2

What do the screens show for `CCCCN(C)C(=O)CCC(=O)NNc1nc2ccccc2c2nc(C)nn12`?
YopH inh: -0.5; Mtb bLac sens: 7.0; Mtb growth: 1.1%; Arbovirus inh: -8.2; RecA splice inh: -3.0

Results for CSc1nc2ccc(NC(=O)c3nn(C(C)C)c(=O)c4ccccc34)cc2s1 ?
YopH inh: -9.3; Mtb bLac sens: 1.5; Mtb growth: 0.4%; Arbovirus inh: 0.6; RecA splice inh: -0.3

How did C/C(=N/NC(=O)c1ccco1)c1cccnc1 do in these assays?
Mtb bLac sens: 4.2; Mtb growth: -6.6%; Arbovirus inh: -0.8

How did O=C1/C(=C/c2cccs2)CCc2ccccc21 do in these assays?
YopH inh: -3.2; Mtb bLac sens: -3.0; Mtb growth: 1.1%; Arbovirus inh: -0.9; RecA splice inh: 10.3

What do the screens show for `N/C(=N\OC(=O)c1ccc(Br)o1)c1cccnc1`?
Mtb bLac sens: 5.1; Mtb growth: -1.3%; Arbovirus inh: 1.9; RecA splice inh: -2.3

Results for O=C(CSc1nnc(Cc2cccs2)n1-c1ccccc1)NC1CCCCC1 ?
YopH inh: -32.3; Mtb bLac sens: -10.4; Mtb growth: -8.9%; Arbovirus inh: 2.6; RecA splice inh: -1.2

What do the screens show for `Cc1ccn2cc(-c3cccc(NS(C)(=O)=O)c3)nc2c1`?
Mtb bLac sens: -1.8; Mtb growth: -6.5%; Arbovirus inh: -1.9; RecA splice inh: -2.1

What do the screens show for `O=C(CNC(=O)C1CCCCC1)Nc1ccccc1Cl`?
YopH inh: -8.3; Mtb bLac sens: 2.0; Mtb growth: 9.7%; Arbovirus inh: 3.2; RecA splice inh: 3.7

How did COCc1c(Br)c(C)[nH]c(=O)c1C#N do in these assays?
YopH inh: -45.8; Mtb bLac sens: 11.2; Mtb growth: -3.4%; Arbovirus inh: -1.3; RecA splice inh: 0.7

What do the screens show for `O=C(CSc1nc2ccccc2o1)NCc1ccc2c(c1)OCO2`?
YopH inh: 6.5; Mtb bLac sens: -0.2; Mtb growth: 6.0%; Arbovirus inh: -3.2; RecA splice inh: 10.3; Arbovirus inh repeat: 7.4

What do the screens show for `CCCCNC(=O)c1ccccc1NC(=O)c1ccc2c(c1)OCO2`?
Mtb bLac sens: 1.1; Mtb growth: 13.8%; Arbovirus inh: -2.4; RecA splice inh: -6.5

Results for O=C(Nc1ccc(N2CCN(C(=O)c3ccccc3)CC2)cc1)c1cc([N+](=O)[O-])ccc1N1CCOCC1 ?
Mtb bLac sens: 18.7; RecA splice inh: 2.0

Results for CN(c1ccc(Cl)cc1)c1cc(=O)n(C)c2ccccc12 ?
YopH inh: 13.6; Mtb bLac sens: 45.4; Mtb growth: -1.1%; Arbovirus inh: -1.8; RecA splice inh: 3.6

How did CCCCn1c(=O)c(C(=O)Nc2ccccc2Cl)c(O)c2ccccc21 do in these assays?
Mtb bLac sens: 5.6; RecA splice inh: -3.5

What do the screens show for `CC(C)(C)OC(=O)N/N=C/c1cn(-c2ccccc2)nc1-c1cccnc1`?
Mtb bLac sens: 2.0; Mtb growth: 6.1%; Arbovirus inh: -10.8; RecA splice inh: 3.6

Results for COc1ccc(S(=O)(=O)NCC(c2ccc3c(c2)OCO3)N2CCN(C)CC2)cc1OC (configuration not stated) ?
Mtb bLac sens: 5.7; RecA splice inh: -0.2

How did CC(=O)Nc1ccc(C(=O)OCCCOC(=O)c2ccc(NC(C)=O)cc2)cc1 do in these assays?
Mtb bLac sens: inconclusive; RecA splice inh: 1.6

Results for CCOC(=O)N1CCN(C(=O)/C=C/c2ccc3c(c2)OCO3)CC1 ?
YopH inh: -24.7; Mtb bLac sens: -1.9; Mtb growth: 0.4%; Arbovirus inh: -6.1; RecA splice inh: 1.3

Results for CCCN1CCN(CCCNC(=O)Cn2nc(-c3ccc(Cl)cc3)ccc2=O)CC1 ?
YopH inh: -14.4; Mtb bLac sens: -3.2; Arbovirus inh: 1.2; RecA splice inh: -2.6

How did Cc1nn(-c2ccccc2)c(OC(=O)c2cccs2)c1S(=O)(=O)c1ccc([N+](=O)[O-])cc1 do in these assays?
YopH inh: -20.6; Mtb bLac sens: -2.0; Mtb growth: -5.7%; Arbovirus inh: -1.9; RecA splice inh: 3.7

How did CCCCc1ccc(NC(=S)N2CCCC(C)C2)cc1 (configuration not stated) do in these assays?
Mtb bLac sens: -3.5; Mtb growth: inconclusive; Arbovirus inh: 9.4; RecA splice inh: 3.3

What do the screens show for `CN(C)c1ccc(/C=N/NC(=O)c2nnn(-c3nonc3N)c2COc2ccc(F)cc2)cc1`?
Mtb bLac sens: 2.2; Mtb growth: 2.4%; RecA splice inh: -14.6

Results for c1ccc(Cn2nnc(CNc3ccccc3)c2-c2c(CNc3ccccc3)nnn2Cc2ccccc2)cc1 ?
Mtb bLac sens: -14.4; Mtb growth: -0.2%; RecA splice inh: 6.9

Results for O=C(CSc1nc(O)cc(=O)[nH]1)C1CC1 ?
YopH inh: -40.9; Mtb bLac sens: -6.7; Mtb growth: 1.3%; Arbovirus inh: 9.2; RecA splice inh: -1.5

Results for O=S(=O)(c1ccc(Cl)cc1)N1CCN(c2ccc(N3CCOCC3)nn2)CC1 ?
YopH inh: -12.8; Mtb bLac sens: -1.3; Mtb growth: 1.4%; Arbovirus inh: -5.0; RecA splice inh: 0.5

Results for Cc1ccc(CSc2nnc(-c3ccncc3)n2CC2CCCO2)cc1 (configuration not stated) ?
YopH inh: -144.1; Mtb bLac sens: inconclusive; Mtb growth: -10.5%; Arbovirus inh: 6.9; RecA splice inh: 3.8

What do the screens show for `O=S(=O)(Nc1ccccc1)c1ccc2c(c1)CCO2`?
Mtb bLac sens: 82.1; Mtb growth: 3.1%; RecA splice inh: 2.0

How did Cc1ncoc1C(=O)N1CCCC(CCC(=O)NCc2ccc(F)c(F)c2)C1 (configuration not stated) do in these assays?
Mtb bLac sens: -6.7; Mtb growth: 1.4%; Arbovirus inh: -9.8; RecA splice inh: -0.4

Screening results: PubChem, several laboratories
